# Beta cell apopt: beta cell apoptosis inhibition. INS-1E cytokine-induced death, ATP luminescence, 48 h; percent of positive-control rescue, neutral wells zero. protection from apoptosis, % (test concentration not listed). 0.8% of 300,000 active. AID 435005;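 active means all replicates at 75% or more, or half of them and the mean; inconclusive means half reach 75% but not the mean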;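 further: 0% = cytokine-treated negative control wells and 100% = positive control rescue; higher means more ATP so stronger rescue from cytokine killing; wells of about 40 µL received 100 nL stock; the first replicate is given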
# LANA-H2A inh: blocks KSHV LANA binding to histone H2A/H2B. Q9QR71. cell-free LANA-H2A/H2B peptide, fluorescence polarization. inhibition, % (concentration not given with the values). 0.6% of 320,000 active; in the data active means inhibition mostly above about 10%, no sharp cut-off; inactive means mostly below about 6.7%;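 further: stock transfer was 7.5 nL into about 10 µL; 0% = median of vehicle wells and 100% = median of positive control wells; one replicate is shown; the record names a cut of 25% in any replicate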
# T cruzi repl: T. cruzi replication inhibition | inhibition, % (no concentration beside the values) | AID 1885 | 1.4% of 300,000 active | T. cruzi beta-gal in NIH3T3, luminescence, 90 h;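 active means mean inhibition across valid replicates above about 55%, limit read from the data; inconclusive means mean below that limit but half or more replicates reach it; inactive means mean below it, under half of replicates reach it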;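 further: signal also drops with host cell toxicity which is not excluded here; 0% = plate median of DMSO wells and 100% = zero luminescence signal; higher percent means less beta-gal luminescence so fewer parasites; stock transfer was 50 nL into about 50 µL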
# Calb FLC: affects C. albicans growth with fluconazole | C. albicans CaCi-2 (fluconazole-resistant clinical isolate) + fluconazole, Alamar Blue growth, 48 h | growth inhibition, % (no concentration beside the values) | 0.57% of 300,000 active | AID 1979;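 active means most replicates above 75%; inconclusive means exactly half above 75%; inactive means most below 75%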;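 further: all wells also contain fluconazole at 8 µg/ml as a sub-toxic cotreatment; 0% = median of DMSO wells and 100% = median of geldanamycin control wells; wells of about 8 µL received 7.5 nL stock; the first replicate is given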
# Bfl-1 A1 inh: inhibitors of the anti-apoptotic protein A1, read as caspase activation. AID 2462. MEF A1-2A-BIM cells, Caspase-Glo 3/7 luminescence, 3 h; percent of clofoctol response, vehicle zero. caspase activation, % (test concentration not listed). 0.066% of 330,000 active;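 active means over half of replicate activation scores above 10%, or exactly half above 10 with the replicate mean above 10; inconclusive means replicate mean below 10 yet half the replicates above 10; inactive means over half of replicates below 10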;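 further: wells of about 30 µL received 50 nL stock; many hits fall short of the cut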
# UCH37 inh: human UCH37 deubiquitinating enzyme inhibition | 0.33% of 330,000 active | Q9Y5K5 | inhibition, % (test concentration not listed) | AID 588478 | purified proteasome/UCH37, Ub-AMC cleavage fluorescence;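 active means mean of two replicates above 20%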;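 further: 0% = compound-free wells with enzyme and 100% = wells lacking proteasome; stock transfer was 100 nL into about 20 µL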
# Target sequence (Q9Y5K5 whole entry, looked up): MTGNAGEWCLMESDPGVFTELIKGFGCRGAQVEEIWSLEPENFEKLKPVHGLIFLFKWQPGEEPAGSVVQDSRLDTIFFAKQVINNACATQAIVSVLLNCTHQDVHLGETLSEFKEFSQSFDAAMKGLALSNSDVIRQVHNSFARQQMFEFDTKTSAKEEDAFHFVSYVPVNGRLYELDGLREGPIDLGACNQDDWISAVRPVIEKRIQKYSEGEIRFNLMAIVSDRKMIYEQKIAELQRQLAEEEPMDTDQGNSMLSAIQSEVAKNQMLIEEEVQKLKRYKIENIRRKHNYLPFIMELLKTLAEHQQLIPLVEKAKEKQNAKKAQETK
#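 Material: Human UCH37 enzyme supplied as purified proteasome complex | Schedule: 30 min compound-proteasome preincubation then 25 min substrate reaction, room temperature | Detection: AMC fluorescence from Ub-AMC cleavage, excitation 355 nm, emission 460 nm | Benchmarks: Wells without proteasome as full block, compound-free enzyme plus substrate as uninhibited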
# RanGTP-Imp inh: disruptors of Ran-importin-beta complex formation – biochemical, FRET, CFP-Ran, YFP-importin-beta, homogeneous, primary screen. inhibition, % (no concentration beside the values). cell-free CFP-Ran/YFP-importin-beta FRET ratio. 1.1% of 300,000 active;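 active means most replicates above 15%; inconclusive means exactly half above 15%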;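 further: 0% = DMSO wells and 100% = Ran loaded with GDP instead of GTP; wells of about 40 µL received 100 nL stock; the first replicate is given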
# Beta2AR agonist: human beta-2 adrenergic receptor agonism by FAP; Am2.2-beta2AR cells, FAP receptor internalization, flow cytometry; reference of the scale not given here; 0.43% of 340,000 active; P07550; AID 504454; response, % (concentration not given with the values);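 active means response above a set limit, near 3 SD of response in nonfluorescent compounds, cut at about 42% in these data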;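 further: stock transfer was 100 nL into about 11 µL; a reference agonist was the positive control; negative values mostly stem from fluorescent compounds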
# Target sequence (P07550 whole entry, looked up): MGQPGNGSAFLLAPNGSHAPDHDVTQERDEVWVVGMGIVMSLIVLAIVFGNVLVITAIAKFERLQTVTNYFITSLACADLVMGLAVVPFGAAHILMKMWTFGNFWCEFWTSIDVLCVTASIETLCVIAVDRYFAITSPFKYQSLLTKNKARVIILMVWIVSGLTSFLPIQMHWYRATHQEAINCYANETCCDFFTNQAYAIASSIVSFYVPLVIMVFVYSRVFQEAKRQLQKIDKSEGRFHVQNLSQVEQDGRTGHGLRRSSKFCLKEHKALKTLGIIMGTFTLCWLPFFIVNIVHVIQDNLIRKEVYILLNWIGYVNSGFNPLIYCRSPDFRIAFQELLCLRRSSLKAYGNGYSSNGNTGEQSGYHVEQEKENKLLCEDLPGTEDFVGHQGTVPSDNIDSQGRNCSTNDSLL
# * = called active by the depositor; ? = inconclusive; . = no result given.
SMILES,Beta cell apopt,LANA-H2A inh,T cruzi repl,Calb FLC,Bfl-1 A1 inh,UCH37 inh,RanGTP-Imp inh,Beta2AR agonist
O=C(Nc1ccccc1N1CCCC1)C1CC(=O)N(Cc2ccccc2)C1 (configuration not stated),1.4,0.6,-3.6,-4.8,0.2,2.9,3.3,1.8
O=C(CSc1ncccc1C(=O)O)c1cccc(C(F)(F)F)c1,-5.8,-2.3,-10.7,19.6,-2.5,1.6,0.6,-1.2
Cc1cccc(-c2nc(CN3CCCC(C(=O)NC4CCCCC4)C3)c(C)o2)c1 (configuration not stated),.,-0.2,39.7,-19.7,0.0,0.0,3.6,3.1
Cc1c(Cl)ccc(S(=O)(=O)Nc2cccnc2)c1Cl,-4.3,-2.3,0.7,76.8*,0.3,4.2,-2.5,-2.5
CCc1ccc(NC(=O)CS(=O)CC(=O)N2CCN(c3ccccc3F)CC2)cc1 (configuration not stated),-1.1,1.2,-3.2,16.2,2.1,0.4,-2.7,13.9
N=c1oc2ccc(Br)cc2cc1C(=O)NCc1ccccc1,-8.2,5.5,-2.3,1.6,-0.4,2.1,-0.5,-5.3
O=C(NCc1ccccn1)C1CCCN(S(=O)(=O)c2cccc3nsnc23)C1 (configuration not stated),-0.8,2.2,2.5,-0.6,0.2,5.2,0.4,-17.0
CCOc1ccccc1Nc1ncnc2c1cnn2-c1ccccc1,1.7,-1.1,0.0,3.4,?,1.0,-3.2,-14.8
Cn1cnc2c(oc3ccccc32)c1=O,.,4.5,-14.4,2.3,0.1,3.5,1.4,0.8
CC12CCC(C/C1=N\N=C1\NC(=O)/C(=C\c3ccc(Cl)cc3)S1)C2(C)C (configuration not stated),5.8,0.8,32.5,1.1,1.9,.,-0.7,8.9
COc1cc2cc(C(=O)N/N=C/c3ccccc3Cl)[nH]c2cc1OC,7.1,0.7,-2.8,27.1,0.1,.,1.9,31.0
CN(CC(=O)Nc1cccc(F)c1)C(=O)/C=C/c1ccc2ccccc2n1,.,-1.6,-12.2,-2.1,0.0,-1.4,10.3,-0.5
C/C(Cn1nc([N+](=O)[O-])cc1C)=N\NC(=O)COc1ccccc1[N+](=O)[O-],-0.6,-6.2,-11.8,8.5,0.9,.,3.9,-2.7
O=C(Nc1nncs1)C(Sc1ccccc1)c1ccccc1 (configuration not stated),-4.7,6.7,-8.3,28.2,0.2,3.9,4.7,0.2
Cc1cc2nc(CSc3ccccc3)cc(=O)n2[nH]1,.,0.7,9.7,?,-0.5,0.3,3.1,-1.5
Cc1ccc(-c2cn3c(=O)cc(C)[nH]c3n2)cc1,1.4,1.3,10.4,8.6,-4.0,-63.6,1.7,1.8
COc1ccc(OC)c(-n2c(CNC3CCN(Cc4ccccc4)CC3)nc3ccccc3c2=O)c1,-1.9,3.6,15.2,0.7,0.7,2.0,0.9,-1.1
O=C(Nc1nnc(S(=O)(=O)N2CCOCC2)s1)c1cccc(Br)c1,18.6,-4.0,-13.6,-4.2,-1.8,.,4.6,18.2
COc1ccc(OCCC(=O)NCC23CC4CC(CC(C4)C2)C3)cc1,.,-1.9,-8.0,-44.3,1.0,3.3,-3.4,-5.9
CC1=NC(C(F)(F)F)(C(F)(F)F)C(C#N)=C(C)N1,.,-4.0,3.5,-3.6,-0.5,0.6,4.4,-2.0
Cc1ccccc1CSc1nc(C(C)(C)C)cc(=O)[nH]1,.,6.3,-6.7,8.0,-0.5,1.0,1.7,-6.8
N/C(=N\NC(=O)Nc1ccccc1)c1ccccn1,2.2,0.2,-0.9,-5.8,0.5,3.3,6.2,-7.0
CC1=CC2=NC(=O)/C(=C\c3cc(C)n(-c4ccccc4F)c3C)C(=N)N2O1,8.3,-5.8,0.8,2.5,1.2,-3.5,3.9,-18.4
COc1nnc(-c2ccc(N3CCCCC3)c(NC(=O)C3CCCCC3)c2)c2ccccc12,78.7*,-10.4,34.2,?,0.1,-0.5,1.5,20.9
CC(=O)N1CCC(C(=O)c2ccc(Cl)cc2)CC1,6.1,-2.3,-1.6,4.1,0.9,0.3,1.1,1.8

# Reformatted: results already given
> Cc1cc2nc(CSc3ccccc3)cc(=O)n2[nH]1
  Beta cell apopt: .; LANA-H2A inh: 0.7; T cruzi repl: 9.7; Calb FLC: ?; Bfl-1 A1 inh: -0.5; UCH37 inh: 0.3; RanGTP-Imp inh: 3.1; Beta2AR agonist: -1.5
> Cc1ccc(-c2cn3c(=O)cc(C)[nH]c3n2)cc1
  Beta cell apopt: 1.4; LANA-H2A inh: 1.3; T cruzi repl: 10.4; Calb FLC: 8.6; Bfl-1 A1 inh: -4.0; UCH37 inh: -63.6; RanGTP-Imp inh: 1.7; Beta2AR agonist: 1.8

# Other records follow:
SMILES,Beta cell apopt,LANA-H2A inh,T cruzi repl,Calb FLC,Bfl-1 A1 inh,UCH37 inh,RanGTP-Imp inh,Beta2AR agonist
Cc1ccc(C)c(Oc2cc(NN3CCCCC3)c([N+](=O)[O-])cc2[N+](=O)[O-])c1,9.3,0.7,-5.1,3.8,-0.6,4.1,0.9,-1.3
CCOc1ccccc1NC(=O)NC(=O)N(C)S(C)(=O)=O,-1.4,9.3,1.5,0.9,0.3,2.0,?,-5.8
COc1cnc(-c2ccccc2)nc1OC,-9.2,1.9,-3.1,-7.9,-0.6,0.3,-1.2,-1.6
NS(=O)(=O)c1ccc(S(=O)(=O)N2CCCC2)cc1,-9.4,-3.9,-5.6,0.5,-0.4,6.0,-0.3,8.9
Cc1cccc(C)c1NC(=O)CN(C)C(C)C(=O)NCC(=O)Nc1ccc(F)c(F)c1F (configuration not stated),-0.4,186.6*,.,.,0.7,2.2,.,1.0
O=C(NCC1CCCO1)c1c(O)c2cccc3c2n(c1=O)CCC3 (configuration not stated),2.1,1.1,0.9,-2.3,0.4,-2.7,0.9,-1.9
O=C(NCc1nc2ccccc2[nH]1)C1=C[C@H](c2ccc(Br)cc2)C[C@H](OCc2ccc(CO)cc2)O1,4.7,-1.8,-1.7,21.7,-0.3,0.8,0.0,16.9
O=C(/C=C/c1ccccc1)Oc1ccc(C(=S)N2CCOCC2)cc1,0.5,4.8,5.7,-6.8,0.0,0.0,7.8,0.7
CC1=C(C(=O)OC(C)(C)C)C(c2ccco2)C(C#N)=C(N)O1 (configuration not stated),3.0,6.8,-2.0,35.3,-1.4,1.4,-4.1,9.0
COc1ccc(NC(=S)N2CCCC2)cc1,-6.5,-6.5,-6.0,3.3,0.9,0.7,-1.7,-0.2
Cc1ccc(-c2sc(C)nc2CC(=O)O)cc1,.,-2.9,-8.1,11.5,0.0,0.6,-1.3,0.0
Cc1cc(Sc2nc(N)ncc2[N+](=O)[O-])ncn1,-13.5,-1.7,61.3*,105.1*,-0.7,5.5,2.9,5.2
COc1ccc(C(=O)C(CN2CCOCC2)c2ccccc2)cc1 (configuration not stated),-36.1,1.6,29.5,3.4,1.7,0.5,4.3,4.7
CN1CCN(c2ccc(Cl)cc2NC(=O)c2ccc(=O)n(C)n2)CC1,-8.9,3.6,10.6,-0.2,0.5,3.4,-1.8,-5.1
c1ccc(SCc2nc(-c3ccccn3)no2)cc1,12.1,3.9,-8.2,-1.2,2.8,-2.1,5.5,-4.2
CSC(=CC(=O)c1ccccc1)SC,-1.1,2.0,-8.2,-11.8,0.2,10.4,10.1,-17.1
Cc1ccc(CNC(=O)C2CCCN(S(=O)(=O)c3cnc[nH]3)C2)cc1 (configuration not stated),.,-2.5,-8.6,-6.2,0.2,5.6,1.1,-2.9
CN(C(=O)CSc1nncn1C)C1CCCN(Cc2ccccc2F)C1 (configuration not stated),-0.9,-1.4,-2.9,2.0,1.2,0.9,-3.7,3.6
Cc1ccc(-c2c(C)n([O-])c3c([n+]2=O)CCCC3)cc1,-4.1,-1.5,-7.7,-2.4,0.3,6.5,0.8,0.1
O=C(N/N=C/C1CC2CCC1C2)c1c[nH]c2ccccc12 (configuration not stated),-1.3,5.6,-15.7,-16.9,0.1,.,-0.3,-2.1
COc1ccc(C(=O)Nc2cccc(S(C)(=O)=O)c2)cc1OC,4.0,-1.3,-4.4,3.2,-1.8,1.1,0.2,-6.4
CCn1c(=O)n(CC)c2cc(N3CCCC3)c(NC(=O)c3ccc(F)cc3)cc21,-4.4,9.1,23.9,18.8,0.3,.,1.8,-9.4
COc1ccc(N2CCN(C(=O)C3(S(=O)(=O)c4ccc(C)cc4)CC3)CC2)cc1,2.5,2.7,-0.9,-0.8,0.2,3.5,0.4,-9.5
COCCN(C(=S)Nc1ccccc1C)C(C)c1cccnc1 (configuration not stated),-4.2,-0.3,-1.2,9.3,-0.3,1.8,-7.2,5.3
O=C(O)CC1COc2ccccc2N1S(=O)(=O)c1ccc(Br)cc1 (configuration not stated),-3.9,0.4,-4.9,7.4,-0.3,3.6,?,-5.1
SMILES,Beta cell apopt,LANA-H2A inh,T cruzi repl,Calb FLC,Bfl-1 A1 inh,UCH37 inh,RanGTP-Imp inh,Beta2AR agonist
COC(=O)Cc1ccc(NC(=O)c2cccs2)cc1,3.1,0.0,-12.7,-4.5,-0.4,6.3,0.2,-0.2
CCOC(=O)C1=C(C)N(C)C(=S)NC1c1cc(OC)ccc1OC (configuration not stated),0.3,7.0,-1.3,2.7,1.1,1.2,0.5,-2.4
CCCCCCC(=O)Nc1cc2c(C)cc(=O)oc2cc1C,0.6,0.1,-2.1,-4.7,3.3,-4.3,1.5,10.5
COC(=O)c1ccc(COC(=O)c2c(C)nn(Cc3ccccc3Cl)c2Cl)o1,-7.6,4.1,5.6,-0.6,-0.5,3.0,-1.1,-0.9
O=C(Nc1ccc(N2CCCCC2)cc1)c1ccc2ccccc2n1,1.4,4.8,10.4,30.6,-0.3,2.4,-1.9,6.1
COc1ccc2oc(C(=O)OCc3c(C)noc3C)c(C)c2c1,-3.0,-5.0,7.9,-4.0,-0.5,0.4,2.1,9.6
COc1ccc(CN2CCC(n3nccc3NC(=O)CCCc3ccccc3)CC2)cc1C,8.2,-3.5,31.6,-1.3,-0.4,0.9,6.2,-2.5
COc1cccc(C(=O)Nc2cccnc2)c1OC,-2.3,5.8,-7.5,-7.6,-0.1,2.2,-6.2,-0.5
COC(=O)[C@@H]1C2CCC(C(=O)Nc3ccccc3)(CC2)[C@@H]1C(=O)OC,-0.7,-1.1,0.0,-8.2,0.6,2.2,-1.6,-7.4
O=C(CCCNS(=O)(=O)c1cccc2nsnc12)NCc1ccc(F)cc1,3.6,1.3,11.6,6.9,0.4,4.5,1.1,-4.3
O=C(O)CSc1ccc2ccccc2n1,-5.8,-0.5,0.7,2.0,-0.6,2.0,-2.7,1.7
O=C(COC(=O)C1COc2ccccc2O1)Nc1ccc2c(c1)CCC2 (configuration not stated),-1.3,1.9,-1.6,3.5,-0.3,-2.0,-1.7,1.1
CC1(C)NC(=O)N(CCCCSc2ccc(Cl)cc2)C1=O,-5.4,0.0,-0.8,-1.2,0.3,2.4,-0.5,7.2
Cc1ccc2c(C)c(C(=O)NCc3ccc(S(N)(=O)=O)cc3)oc2c1C,5.7,-3.4,10.7,-12.0,0.0,-2.1,-2.5,5.4
COc1cccc(-n2c(SCC(=O)NCc3ccco3)nnc2-c2c[nH]c3ccccc23)c1,4.7,7.5,20.3,7.4,0.2,4.2,?,-7.1
CCC(C)Nc1nc(OC)nc(N(C)C#N)n1 (configuration not stated),-5.2,2.8,-15.2,-20.7,0.5,1.9,4.1,0.1

# Compound activity (PubChem)
